# Polio RdRp inh: poliovirus RdRp elongation inhibitors, primary screen, biochemical, fluorescence polarization, total intensity. AID 588519, 2011. % elongation, % (compound at 16.7 µg/mL). actives 0.66% (n = 150,000). Genome polyprotein (Poliovirus type 1 (strain Mahoney)), P03300. poliovirus polymerase elongation; hits give low values; in the data active = % elongation below about 90%; also: some results filed as inactive read as strong as hits
# Target sequence (P03300 1749-2209 limits assumed): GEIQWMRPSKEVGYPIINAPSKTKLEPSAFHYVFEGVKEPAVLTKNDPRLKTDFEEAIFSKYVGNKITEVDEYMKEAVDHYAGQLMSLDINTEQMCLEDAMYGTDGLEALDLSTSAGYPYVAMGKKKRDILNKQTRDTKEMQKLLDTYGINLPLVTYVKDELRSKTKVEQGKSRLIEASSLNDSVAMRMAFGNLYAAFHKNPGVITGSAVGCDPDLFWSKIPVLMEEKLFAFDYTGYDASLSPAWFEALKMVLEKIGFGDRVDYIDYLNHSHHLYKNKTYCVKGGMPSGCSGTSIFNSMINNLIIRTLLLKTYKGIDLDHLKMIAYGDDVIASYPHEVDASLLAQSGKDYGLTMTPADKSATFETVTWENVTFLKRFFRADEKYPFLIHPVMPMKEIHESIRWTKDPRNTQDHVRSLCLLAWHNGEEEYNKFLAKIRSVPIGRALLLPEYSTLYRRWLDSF
# Polio RdRp inh intensity: second read-out of Polio RdRp inh, no call of its own (marks repeat the call); % elongation; measured here: total intensity read-out; formula for this scale not given here;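 total fluorescence in place of polarization; lower means less elongation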
# * marks the source's active call; other numbers are inactive results. This is a subset; count on the stated rates, not on these rows.
SMILES,Polio RdRp inh,Polio RdRp inh intensity
Cc1ccc2[nH]c3c(=O)n(CC(=O)NCCc4ccc(Cl)cc4)ncc3c2c1,106.0,100.0
Cc1coc2c(C)c3oc(=O)c(CC(=O)NCc4ccccc4)c(C)c3cc12,106.0,107.0
CCOc1ccc(N2C(=O)CS(=O)(=O)C23C(=O)N(Cc2cccc(Cl)c2)c2ccccc23)cc1 (stereo unspecified),105.0,104.0
O=C(Nc1c(C(=O)N2CCC(N3CCCCC3)CC2)oc2ccccc12)c1c(F)cccc1F,106.0,109.0
Cc1ccc(C)c(NC(=O)CN2C(=O)CSc3nc(C)cc(C)c32)c1,107.0,111.0
Cc1ccccc1CC1C(=O)Nc2ccc(Br)cc21 (stereo unspecified),107.0,109.0
COc1ccc2c(c1)c1c(c(=O)n(-c3ccccc3C)c(=O)n1Cc1ccccc1C)n2C,111.0,114.0
O=S(=O)(NCC(c1ccco1)N1CCOCC1)c1cc(F)ccc1F (stereo unspecified),103.0,109.0
Nc1c(C(=O)NCc2ccccc2)nnn1Cc1cccc(Br)c1,103.0,108.0
Cc1cccc(C(=O)Nc2cccc(OCc3cc(=O)n4c(C)csc4n3)c2)c1,112.0,111.0
CCOc1ccc(-n2c(=O)c3c(C)c(C)sc3n(CC(=O)Nc3ccc(CC)cc3)c2=O)cc1,102.0,102.0
Cc1cc(-c2ccc(C)c(S(=O)(=O)NCC3CCN(Cc4ccc(F)cc4)CC3)c2)on1,105.0,104.0
CC1CCC(NC(=O)c2ccc(CS(=O)(=O)c3cccc(C(F)(F)F)c3)o2)CC1 (stereo unspecified),106.0,104.0
COC(=O)c1ccc(Oc2nc3c(c(=O)n(C)c(=O)n3C)n2C(C)C)cc1,105.0,106.0
COc1ccc(OC)c(NCc2cccn2-c2nnc(N3CCC(C)CC3)s2)c1,104.0,105.0
CCCNC(=O)C1CCN(Cc2cc3ccccc3n2Cc2ccccc2)CC1,108.0,111.0
COc1ccccc1Cc1nc2ccccc2nc1SCC(=O)Nc1ccccc1C(F)(F)F,105.0,110.0
CC1(C)N=C(SCc2ccc(Cl)cc2)c2ccccc2N1,110.0,106.0
COc1cc(C2Nc3ccccc3-c3cc(C)nn32)ccc1O (stereo unspecified),104.0,97.0
CN(C)c1ccc(C(=O)Nc2sc(Nc3ccccc3)nc2C(N)=O)cc1,110.0,110.0
Cc1c(-c2ccc(Cl)cc2)c(=O)oc2c(CN3CCCC3)c(O)ccc12,112.0,109.0
CCNC(=O)c1c(NC(=O)c2nc(S(=O)(=O)CC)ncc2Cl)sc2c1CCCC2,116.0,112.0
CCN1CCc2nc3sc(C(=O)c4ccccc4)c(N)c3cc2C1,113.0,231.0
Clc1ccc(CSc2nc3ncccc3[nH]2)cc1,109.0,110.0
Cc1ccc(CNC(=O)CNS(=O)(=O)c2cccs2)cc1,114.0,117.0
# Going on with the list:
SMILES,Polio RdRp inh,Polio RdRp inh intensity
CCN1C(=O)c2ccccc2Sc2ccc(NC(=O)c3ccc(Cl)cc3)cc21,108.0,113.0
Cc1ccc(NC(=O)Cc2ccc(NC(=O)N3CCCCc4ccccc43)cc2)cc1,108.0,105.0
COc1ccc(NC(=O)NCc2c(-n3cccc3)sc3c2CCCC3)c(OC)c1,108.0,111.0
Cn1c(=O)nc2n(-c3ccc(Cl)c(Cl)c3)c3cc(Cl)ccc3cc-2c1=O,112.0,115.0
O=C(Nc1ccccc1C(F)(F)F)C1CCN(S(=O)(=O)Cc2ccccc2)CC1,113.0,114.0
Cc1ccc(-c2cc(-c3ccccc3)c(C#N)c(SCC(O)CS(=O)(=O)Cc3ccccc3)n2)cc1 (stereo unspecified),94.0,89.0
CCCc1nn2c(=O)cc(COC(=O)c3cccc(NC(=O)COc4ccc(F)cc4)c3)nc2s1,105.0,110.0
COc1cccc(CC(=O)Nc2c(C(=O)N3CCN(c4ccccc4F)CC3)oc3ccccc23)c1,110.0,110.0
CN1CCN(C(CNC(=O)c2c(F)cccc2F)c2ccc3c(c2)OCO3)CC1 (stereo unspecified),106.0,109.0
CCC1(C)CC(=O)c2c(ccc3oc(C(=O)Nc4ccc(C(C)=O)cc4)c(C)c23)O1 (stereo unspecified),111.0,115.0
CN(Cc1ccccc1)C(=O)c1cc(-c2cccc(Cl)c2)on1,103.0,105.0
CC1CCN(C(=O)CSc2nnc(-c3ccccc3)o2)CC1,106.0,110.0
COc1ccc(N(C(=O)c2ccccc2C)S(=O)(=O)c2ccc3c(c2)n(C)c(=O)n3C)cc1,105.0,108.0
O=C(c1ccccc1)N1CCN(CCc2ccccn2)CC1,105.0,102.0
CCOC(=O)c1c(SCC(=O)Nc2nc3ccc(C)cc3s2)nc(=O)[nH]c1C,105.0,107.0
COCCCNC(=O)c1ccc(Cn2c(=O)c3ccccc3n(Cc3ccccc3C)c2=O)cc1,101.0,102.0
CCc1ccc(NCc2cc3ccc(OC)cc3n(CC(=O)Nc3c(C)cc(C)cc3C)c2=O)cc1,107.0,113.0
Cc1ccc(-n2nc(C)c3nc(CCC(=O)Nc4cccc(C)c4C)c(=O)n(C)c32)cc1,107.0,107.0
COc1ccc(NC(=O)C(NS(=O)(=O)c2ccc3c(c2)CCCC(=O)N3)C(C)C)c(OC)c1 (stereo unspecified),98.0,103.0
Cc1ccc2oc(-c3cc(NC(=O)c4ccco4)ccc3Cl)nc2c1,112.0,115.0
Cc1ccc(-n2nc(CO)c(C(=O)NCc3ccccn3)n2)cc1C,108.0,107.0
COc1ccc(NC(=O)C2CCN(C(=O)N3CCOc4ccccc43)CC2)cc1,109.0,107.0
CCN(CC)c1nn2c(=O)c(C(=O)NCCc3ccc(C)cc3)cnc2s1,104.0,107.0
CCC(=O)NCc1nc2ccccc2n1Cc1ccccc1,110.0,111.0
COc1ccc(-n2ncc(C(=O)NCCCN3CCCCC3)c2C2CCN(C(=O)OC(C)(C)C)CC2)cc1,104.0,106.0

# Molecules shown so far with bromine (two):
SMILES,Polio RdRp inh,Polio RdRp inh intensity
Cc1ccccc1CC1C(=O)Nc2ccc(Br)cc21 (stereo unspecified),107.0,109.0
Nc1c(C(=O)NCc2ccccc2)nnn1Cc1cccc(Br)c1,103.0,108.0

# Later entries
SMILES,Polio RdRp inh,Polio RdRp inh intensity
CCN(CC)S(=O)(=O)c1ccc2oc(C(=O)Nc3cc(C)ccc3OC)c(C)c2c1,108.0,106.0
Cc1ccc(OCC(=O)Nc2ccc3nc(SCC(=O)N4CCc5ccccc54)sc3c2)cc1,107.0,111.0
CCc1ccccc1NC(=O)c1nnn(Cc2ccc(Cl)cc2)c1N,107.0,108.0
COc1ccccc1CNC(=O)c1ccc2c(c1)N(Cc1c(F)cccc1Cl)C(=O)CS2,103.0,105.0
CCCOc1ccc(C(=O)N(Cc2cccs2)C2CCS(=O)(=O)C2)cc1 (stereo unspecified),104.0,110.0
O=C(NCc1ccc(Cl)cc1)c1ccc2c(c1)NC(=O)C(CS(=O)(=O)Cc1ccc(F)cc1Cl)N2 (stereo unspecified),144.0,156.0
COC(=O)c1ccc(CSc2nc3c([nH]c4ccccc43)c(=O)n2-c2ccc(F)cc2)o1,106.0,110.0
CCOC(=O)c1ccccc1NC(=O)N1CCc2c(sc(C)c2CC)C1c1ccccc1 (stereo unspecified),108.0,97.0
O=C(CCS(=O)(=O)c1nc(-c2cccs2)cc(C(F)(F)F)n1)Nc1cccc(O)c1,108.0,108.0
Clc1ccc(Nc2c(-c3ccccc3Cl)nc3ccc(Cl)cn23)cc1,102.0,104.0
Cc1ccccc1CNC(=O)c1c(C)oc2c1C1=NCCN1C=N2,109.0,115.0
CCc1cccc(C)c1NC(=O)c1cc(C)nc2c1c(C)nn2-c1cccc(Cl)c1C,107.0,101.0
O=c1c2ccccc2n(Cc2c(F)cccc2Cl)c(=O)n1CCc1ccccc1,109.0,112.0
COc1ccc(Nc2ncc(C(=O)Nc3ccc(F)cc3F)c3ccccc23)cc1,106.0,100.0
COc1cc(CNc2ccc3c(c2)ncn3C(C)C)cc(OC)c1OC,105.0,111.0
O=C(CCN1C(=O)c2ccccc2Sc2ncccc21)Nc1ccc(F)cc1,103.0,104.0
Cc1ccccc1NC(=O)CSc1nc(-c2ccc(F)cc2)nc2c1Cc1ccccc1O2,106.0,111.0
CCOC(=O)c1cnc2ccc(OCC)cc2c1NCCc1ccc(OC)c(OC)c1,107.0,101.0
CN(C)c1ccc(CNC(=O)c2ccccc2NC(=O)c2nsc3ccccc23)cc1,111.0,110.0
CC(C)(C)OC(=O)N1CCC(c2nnc(SCc3ccccc3Cl)o2)CC1,102.0,106.0
COc1ccc(NC(=O)C(=O)NCc2ccco2)c(OC)c1,103.0,101.0
Cc1nc(-c2ccc(S(=O)(=O)Nc3ccc(Cl)c(C(F)(F)F)c3)cc2)co1,109.0,109.0
Cc1c(Cl)cccc1NC(=O)c1ccc(NC(=O)N2CCSc3ncccc32)cc1,113.0,112.0
Cc1ccc(NC(=O)C2CCCN2S(=O)(=O)c2ccc3c(c2)n(C)c(=O)c(=O)n3C)cc1 (stereo unspecified),101.0,104.0
COc1ccc2c(c1)-c1nc(NC(=O)c3cc(OC)c(OC)c(OC)c3)sc1CC2,105.0,107.0

# For reference, 22 of the compounds above:
SMILES,Polio RdRp inh,Polio RdRp inh intensity
COc1ccccc1CNC(=O)c1ccc2c(c1)N(Cc1c(F)cccc1Cl)C(=O)CS2,103.0,105.0
CCCOc1ccc(C(=O)N(Cc2cccs2)C2CCS(=O)(=O)C2)cc1 (stereo unspecified),104.0,110.0
O=C(NCc1ccc(Cl)cc1)c1ccc2c(c1)NC(=O)C(CS(=O)(=O)Cc1ccc(F)cc1Cl)N2 (stereo unspecified),144.0,156.0
COC(=O)c1ccc(CSc2nc3c([nH]c4ccccc43)c(=O)n2-c2ccc(F)cc2)o1,106.0,110.0
CCOC(=O)c1ccccc1NC(=O)N1CCc2c(sc(C)c2CC)C1c1ccccc1 (stereo unspecified),108.0,97.0
O=C(CCS(=O)(=O)c1nc(-c2cccs2)cc(C(F)(F)F)n1)Nc1cccc(O)c1,108.0,108.0
Clc1ccc(Nc2c(-c3ccccc3Cl)nc3ccc(Cl)cn23)cc1,102.0,104.0
Cc1ccccc1CNC(=O)c1c(C)oc2c1C1=NCCN1C=N2,109.0,115.0
CCc1cccc(C)c1NC(=O)c1cc(C)nc2c1c(C)nn2-c1cccc(Cl)c1C,107.0,101.0
O=c1c2ccccc2n(Cc2c(F)cccc2Cl)c(=O)n1CCc1ccccc1,109.0,112.0
COc1ccc(Nc2ncc(C(=O)Nc3ccc(F)cc3F)c3ccccc23)cc1,106.0,100.0
COc1cc(CNc2ccc3c(c2)ncn3C(C)C)cc(OC)c1OC,105.0,111.0
O=C(CCN1C(=O)c2ccccc2Sc2ncccc21)Nc1ccc(F)cc1,103.0,104.0
Cc1ccccc1NC(=O)CSc1nc(-c2ccc(F)cc2)nc2c1Cc1ccccc1O2,106.0,111.0
CCOC(=O)c1cnc2ccc(OCC)cc2c1NCCc1ccc(OC)c(OC)c1,107.0,101.0
CN(C)c1ccc(CNC(=O)c2ccccc2NC(=O)c2nsc3ccccc23)cc1,111.0,110.0
CC(C)(C)OC(=O)N1CCC(c2nnc(SCc3ccccc3Cl)o2)CC1,102.0,106.0
COc1ccc(NC(=O)C(=O)NCc2ccco2)c(OC)c1,103.0,101.0
Cc1nc(-c2ccc(S(=O)(=O)Nc3ccc(Cl)c(C(F)(F)F)c3)cc2)co1,109.0,109.0
Cc1c(Cl)cccc1NC(=O)c1ccc(NC(=O)N2CCSc3ncccc32)cc1,113.0,112.0
Cc1ccc(NC(=O)C2CCCN2S(=O)(=O)c2ccc3c(c2)n(C)c(=O)c(=O)n3C)cc1 (stereo unspecified),101.0,104.0
COc1ccc2c(c1)-c1nc(NC(=O)c3cc(OC)c(OC)c(OC)c3)sc1CC2,105.0,107.0

# Other records:
SMILES,Polio RdRp inh,Polio RdRp inh intensity
COc1ccc(C(=O)Nc2cc(C)c(O)c(-c3nc4ccccc4s3)c2)cc1OC,103.0,106.0
COc1ccc(CC(=O)NCCS(=O)(=O)N2CCN(c3ccc(F)cc3)CC2)cc1OC,112.0,108.0
O=S(=O)(c1ccccc1)c1nc(-c2ccccc2Cl)oc1N1CCCCCC1,107.0,106.0
Cc1ccc(Cl)cc1NC(=O)CSc1ccc(C(=O)O)cn1,115.0,114.0
COc1ccc(-c2nc(-c3ccccc3)c(-c3ccccc3)[nH]2)cc1Br,103.0,103.0
COc1ccc2c(c1)c(=O)c(C(=O)c1ccccc1)cn2CC(=O)Nc1ccc2c(c1)OCCO2,108.0,110.0
Clc1ccccc1-c1nnc(SCc2nc(-c3ccccc3)no2)n1-c1ccccc1,111.0,112.0
COc1ccc(N2CCN(C(=O)c3cc4c(=O)n(Cc5cccs5)ccc4nc3C)CC2)cc1,115.0,124.0
Cc1ccc2c(=O)cc(C(=O)Nc3nc4ccc(Cl)cc4s3)oc2c1C,107.0,110.0
Cc1ccc(NC(=O)c2cnc(N3CCCCC3)c3ccccc23)c(C)c1,106.0,103.0
COc1ccc(CCNc2nc3ccc(Cl)cc3n3cnnc23)cc1OC,106.0,106.0
CCCn1c2ccccc2c2cnn(CC(=O)N3CCC(C(=O)OCC)CC3)c(=O)c21,105.0,104.0
